Screens deposited in PubChem by several laboratories.
Rce1 inh – yeast Rce1p protease inhibitors, primary screen, biochemical, fluorescence, cell-free homogeneous. CAAX prenyl protease 2 (Saccharomyces cerevisiae (strain ATCC 204508 / S288c)), Q03530. yeast membranes, quenched prenylated peptide cleavage fluorescence. calls only. 290,000 compounds, 0.27% hits. AID 2563, 2010;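 active = fall in fluorescence gain of 50% or more versus controls, with final raw signal at or below 3038400; inconclusive = same 50% fall but final raw signal above 3038400; inactive = fall in fluorescence gain under 50%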;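 note: plate controls were neutral control wells for no effect and wells lacking membranes for full effect; tested at 10 µM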
Target sequence (Q03530 whole entry, looked up): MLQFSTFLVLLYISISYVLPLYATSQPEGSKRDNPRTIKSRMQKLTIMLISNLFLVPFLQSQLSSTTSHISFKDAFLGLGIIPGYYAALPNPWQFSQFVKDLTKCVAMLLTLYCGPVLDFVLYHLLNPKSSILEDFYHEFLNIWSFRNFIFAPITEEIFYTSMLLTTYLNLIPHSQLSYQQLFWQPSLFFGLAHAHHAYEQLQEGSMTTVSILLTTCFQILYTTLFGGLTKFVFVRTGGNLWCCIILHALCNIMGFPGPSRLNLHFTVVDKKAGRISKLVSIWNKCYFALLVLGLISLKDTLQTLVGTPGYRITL
CSC inhib – cancer stem cell viability inhibitors, primary screen, luminescence | cancer stem cell-like cells viability | inhibition, % at 7.5 µM | 300,000 compounds, 1.1% hits;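 active = mean at 75% or more and at least half the replicates too; inconclusive = mean and replicates disagree; tested in HMLE shEcad cells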;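 note: 0% = median of negative and 100% = median of positive control wells; the first replicate is given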
Yeast UUG start – modulators of yeast start codon fidelity, primary screen, whole organism, S. cerevisiae, single point, plate reader; S. cerevisiae UUG-firefly luciferase reporter, luminescence/redox ratio; AID 602363, 2012; 350,000 compounds, 0.13% hits; activity score, % at 18.7 µM;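 active = replicate mean at a twofold rise or more, about +100% in these data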;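 note: firefly luciferase made from a UUG start codon reports start codon fidelity; reporter light over untreated wells divided by growth signal over untreated wells; some hits fall short of that in this replicate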
eIF4H FP inh – human eIF4H binding inhibitors, primary screen, translation initiation inhibitor project, biochemical, uHTS, fluorescence polarization. inhibition, % at 35 µM. 290,000 compounds, 0.94% hits. eIF4H fluorescence polarization binding assay;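 active = 50% or more with normal probe brightness, or confirmed in later tests; inconclusive = above 50% with abnormal brightness, or retests that disagree; inactive = below 50% or failed in later tests; about a fifth of its hits are not listed in these tables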;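 note: calls also rest on retests at 20 µM and on dose response follow-up; 0% = protein and probe with vehicle and 100% = probe without protein; strong numbers were not always called active; many hits fall short of the cut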
Env fusion inh – inhibitors of HIV-1 Env-driven cell-cell fusion, primary screen, HeLa-JRFL effector, CEM21 target cells, luciferase; inhibition, % at 12.3 µM; AID 651610, 2012; 360,000 compounds, 1.1% hits;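 active = mean replicate inhibition score of at least 50 and every replicate individually at or above 50; inconclusive = only one of the two criteria met; inactive = mean below 50 and not all replicates reaching 50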;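 note: 0% = plate neutral controls and 100% = maraviroc near 300 nM; one replicate is shown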
MT1-MMP act inh – blockers of MT1-MMP proenzyme processing, primary screen, HT1080 RFP-PRO-GFP cells, GFP/RFP fluorescence | Matrix metalloproteinase-14 (Homo sapiens), P50281 | GFP/RFP ratio fluorescence, overnight; percent of plate control window, DMSO zero | GFP/RFP ratio change, % at 20 µM | 360,000 compounds, 0.061% hits | AID 651647, 2012;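 active = GFP/RFP ratio change of at least 30% with cell ATP level not reduced by more than half and red fluorescence within 50% of control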; note: strong numbers were not always called active
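Material – HT1080 RFP-PRO-GFP cells · Control set – DMSO wells and RFP-L50D-GFP cells · Incubation – overnight cell settling, then overnight compound exposure, 37 °C, 5% CO2 · Compound dosing – single-point 20 µM compound, 1% DMSO · Read-out – GFP/RFP fluorescence ratio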
PABP FP inh – PABP poly(A) RNA binding inhibitors, primary screen, biochemical, fluorescence polarization, uHTS; 290,000 compounds, 1% hits; AID 2014, 2009; Polyadenylate-binding protein 1 (Homo sapiens), P11940; inhibition, % at 35 µM;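 active = 50% or more with normal probe brightness, or confirmed in later tests; inconclusive = above 50% with abnormal brightness, or retests that disagree; inactive = below 50% or failed in later tests; about a fifth of its hits are not listed in these tables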;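 note: calls also rest on retests at 20 µM and on dose response follow-up; controls were probe without protein and protein plus probe with vehicle; some compounds called inactive have numbers as strong as hits; many hits fall short of the cut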
Target sequence (P11940 whole entry, looked up): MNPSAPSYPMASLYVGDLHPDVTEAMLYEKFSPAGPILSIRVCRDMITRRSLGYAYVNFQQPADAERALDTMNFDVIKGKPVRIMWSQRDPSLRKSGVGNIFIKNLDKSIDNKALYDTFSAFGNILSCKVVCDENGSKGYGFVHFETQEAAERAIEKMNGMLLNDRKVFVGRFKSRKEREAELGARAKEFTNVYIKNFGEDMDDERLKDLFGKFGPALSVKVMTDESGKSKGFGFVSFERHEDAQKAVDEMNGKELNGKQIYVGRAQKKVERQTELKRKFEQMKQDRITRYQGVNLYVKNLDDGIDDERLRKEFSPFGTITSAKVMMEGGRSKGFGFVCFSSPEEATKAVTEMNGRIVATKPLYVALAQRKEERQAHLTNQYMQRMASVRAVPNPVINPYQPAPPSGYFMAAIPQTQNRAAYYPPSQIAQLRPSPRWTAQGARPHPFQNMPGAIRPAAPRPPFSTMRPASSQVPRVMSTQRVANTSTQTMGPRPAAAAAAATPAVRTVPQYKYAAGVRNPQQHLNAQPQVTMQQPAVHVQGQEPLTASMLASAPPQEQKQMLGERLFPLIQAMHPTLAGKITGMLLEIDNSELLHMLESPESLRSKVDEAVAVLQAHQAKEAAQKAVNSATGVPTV
eIF4H FP inh retest – also measured in eIF4H FP inh; calls as there; inhibition, %; compound at 20 µM; confirmation average;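 mean of two retest wells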
PABP FP inh retest – second read-out of PABP FP inh, no call of its own (marks repeat the call); inhibition, %; compound at 20 µM; confirmation repeats;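 mean of two retest wells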
MT1-MMP act inh RFP – recorded beside MT1-MMP act inh, whose call it bears; RFP signal change, %; measured here: RFP expression control read;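 0 = vehicle wells; hits needed this value within 50% of zero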
An asterisk follows results filed as active; i = inactive; ? = inconclusive; . = no result given; & = joins results of further samples.

SMILES | Rce1 inh | CSC inhib | Yeast UUG start | eIF4H FP inh | Env fusion inh | MT1-MMP act inh | MT1-MMP act inh RFP | PABP FP inh | others
COc1cccc(NC(=S)N2CCc3cc(OC)c(OC)cc3C2COc2ccc3c(C)cc(=O)oc3c2)c1 (centres undefined) | i | -7 | -18 | 2 | 8 | -6 | -12 | -10
CCOc1ccc(C2CC(=O)NC(SC)=C2C#N)cc1 (centres undefined) | i | -14 | -13 | -11 | 2 | -1 | -3 | 3
O=S(=O)(Cc1cccc(F)c1)c1c[nH]c2ccccc12 | i | 7 | -5 | -5 | 24 | -3 | 3 | 7
CCOC(=O)c1c(C)c(C(=O)NC(C)COC)c(C)n1C (centres undefined) | i | -11 | . | 1 | 27 | 5 | 1 | -1
COc1ccc(-c2c(=O)n(OCc3ccccn3)c3ccccc3[n+]2[O-])cc1OC | i | 6 | -34 | 15 | -28 | 0 | 2 | 10
CN1c2ccccc2C2(C)CCCC3=Cc4cc([N+](=O)[O-])cc([N+](=O)[O-])c4OC312 (centres undefined) | i | 7 | . | -3 | 9 | -9 | -7 | 94 | eIF4H FP inh retest=10;PABP FP inh retest=4
CN(C)c1cc(-c2ccc(Cl)cc2Cl)oc(=O)c1Cl | i | 19 | -4 | -1 | -3 | -2 | -5 | 11
Cc1nc2ncnn2c(C)c1CCC(=O)Nc1csc(N)n1 | i | -13 | -6 | -4 | -28 | 3 | 5 | 11
O=S(=O)(c1ccc(-c2csc(-c3cccnc3)n2)cc1)N1CCCCC1 | . | 13 | -19 | -1 | -18 | -10 | -15 | 6
CC1CC(C)CN(S(=O)(=O)c2ccc3oc(=O)ccc3c2)C1 (centres undefined) | i | -16 | -17 | -16 | 4 | -2 | 2 | 1
CC(=O)Nc1cc2c(ccc3ccccc32)oc1=O | i | -1 | . | 10 | -36 | -1 | 0 | 5
COc1ccc(S(=O)(=O)N2CCCC2CNC(=O)C(=O)NC2CC2)cc1 (centres undefined) | i | -10 | 1 | . | -5 | -1 | 4 | .
CC(C)(C)NC(=O)Cn1c(Cl)nc2ccccc21 | i | -7 | . | -2 | -2 | 6 | 1 | -1
Cc1ccc2oc(=O)c3cnn(CC(=O)NCCN4CCOCC4)c3c2c1 | i | . | -5 | 6 | 9 | 0 | 1 | 8
Cc1cccc(NC(=O)NC(C)C(c2ccccc2)N2CCN(C)CC2)c1 (centres undefined) | i | -6 | . | -3 | -12 | -1 | -3 | 10
COC(=O)c1ccc(NC(=O)c2nc(S(=O)(=O)Cc3cccc(C)c3)ncc2Cl)cc1 | i | 110* | -9 | -2 | 41 | 1 | -1 | 8
O=[N+]([O-])c1cccc(Oc2cnccn2)c1 | i | -11 | -3 | 4 | -7 | 2 | 1 | 2
CC(C)c1ccc(/C=N/NC(=O)CC(=O)NC2CCCCC2)cc1 | i | -3 | . | -2 | -1 | -4 | -1 | -11
Cc1nc(SCc2nc3c(C)cccc3[nH]2)c2oc3ccccc3c2n1 | . | . | -16 | . | -25 | -2 | -3 | .
CCn1c(N2CCN(C(=S)NC)CC2)nc2ccccc21 | i | 2 | -24 | 7 | . | 5 | 2 | 31
CCN(CC(=O)Nc1ccccc1C(F)(F)F)C(=O)CCOc1ccc(C)cc1 | i | 16 | 6 | . | 5 | 1 | 1 | .
Nc1ccc2c(=O)[nH][nH]c(=O)c2c1 | . | . | -15 | . | -4 | 6 | 2 | .
CN(C)c1ccc(P(=O)(OCc2ccccc2)C(O)c2ccc(Cl)cc2)cc1 (centres undefined) | i | 2 | -19 | -16 | -3 | -4 | -6 | -6
COc1nc(N2CCCCCC2)nc(N2CCCCCC2)n1 | i | ? | -4 | 1 | 15 | -4 | -14 | 2
COc1ccc(C2c3ccc(O)cc3Oc3ncn(CC(C)C)c(=N)c32)cc1 (centres undefined) | i | 1 | -1 | -4 | 8 | -18 | -5 | -1

For reference, 4 of the compounds above.
SMILES | Rce1 inh | CSC inhib | Yeast UUG start | eIF4H FP inh | Env fusion inh | MT1-MMP act inh | MT1-MMP act inh RFP | PABP FP inh | others
Nc1ccc2c(=O)[nH][nH]c(=O)c2c1 | . | . | -15 | . | -4 | 6 | 2 | .
CN(C)c1ccc(P(=O)(OCc2ccccc2)C(O)c2ccc(Cl)cc2)cc1 (centres undefined) | i | 2 | -19 | -16 | -3 | -4 | -6 | -6
COc1nc(N2CCCCCC2)nc(N2CCCCCC2)n1 | i | ? | -4 | 1 | 15 | -4 | -14 | 2
COc1ccc(C2c3ccc(O)cc3Oc3ncn(CC(C)C)c(=N)c32)cc1 (centres undefined) | i | 1 | -1 | -4 | 8 | -18 | -5 | -1

(continued)
SMILES | Rce1 inh | CSC inhib | Yeast UUG start | eIF4H FP inh | Env fusion inh | MT1-MMP act inh | MT1-MMP act inh RFP | PABP FP inh | others
Cc1ccc(OCCN2CCC2(C)C(=O)Nc2ccc3c(c2)OCCO3)cc1 (centres undefined) | . | . | 14 | . | 9 | 2 | -5 | .
NS(=O)(=O)c1ccc(CCNC(=O)COC(=O)CN2C(=O)C3CCCCC3C2=O)cc1 (centres undefined) | i | -10 | . | 2 | -9 | -1 | 1 | -14
CCCCOC(=O)Nc1nnc(CCOCC)s1 | i | -16 | -3 | -12 | -37 | 1 | 3 | -2
COc1ccc(-c2noc(CNC(=O)CCN3C(=O)[C@H]4CC=CC[C@H]4C3=O)n2)cc1 | i | 8 | -1 | -2 | -2 | -3 | -2 | 0
COc1ccc(NS(=O)(=O)c2ccc(C)c(C(=O)OC(C)C(=O)N3CCOCC3)c2)cc1 (centres undefined) | i | -11 | -18 | . | 0 | 1 | -13 | .
Cc1cccc(NC(=O)c2nc[nH]c2C(=O)NCCN(CCNC(=O)c2[nH]cnc2C(=O)Nc2cccc(C)c2)CCNC(=O)c2[nH]cnc2C(=O)Nc2cccc(C)c2)c1 | . | 28 | -13 | . | 26 | -9 | -11 | .
Cc1c(C(=O)O)nnn1-c1nonc1N | i | -2 | 3 | -3 | 18 | -3 | 6 | -1
CN(C1CCS(=O)(=O)C1)S(=O)(=O)c1cccs1 (centres undefined) | i | -7 | -23 | . | -20 | 4 | 4 | .
CN(CC(=O)Nc1ccc(F)cc1)C(=O)c1cc(-c2cccs2)nn1-c1ccccc1 | . | . | -8 | . | 23 | 1 | 1 | .
COc1nn(C(C)C(=O)N2N=C(C(F)F)CC2(O)C(F)F)cc1[N+](=O)[O-] (centres undefined) | i | -13 | -18 | -10 | -12 | 9 | 4 | -2
Cn1c2ccccc2c2cnn(CC(=O)Nc3ccc(Cl)cc3)c(=O)c21 | i | -4 | . | -1 | 4 | 1 | 1 | -14
CCCCCCCCCc1nc2sc3c(c2c(=O)n1NC(=O)c1ccccc1[N+](=O)[O-])CC(C)(C)OC3 | i | 107* | . | -4 | 27 | -1 | -11 | 2
Cc1ccccc1C(=O)N/N=C/c1ccsc1C | i | -3 | -14 | 1 | . | -2 | 1 | 5
Cc1nnc(NC(=O)CCC2CCCCC2)s1 | . | . | 24 | . | -2 | 3 | 1 | .
O=C(c1cccnc1)N1CCN(Cc2cccc(Br)c2)CC1 | i | -8 | -14 | 18 | . | 8 | 2 | 10
Cc1c(C=O)c2ccccn2c1C(=O)c1ccccc1Cl | i | -4 | -2 | -9 | 4 | 0 | -5 | 7
COc1ccc(-n2nc3c(c2NC(=O)c2c(-c4ccccc4Cl)noc2C)CS(=O)(=O)C3)cc1 | i | -9 | -3 | -5 | . | -2 | -3 | 24
COc1ccc(-c2ccc(C(=O)Nc3ccc(C(C)C)cc3)c3occc23)c(C)c1 | . | . | -28 | . | 5 | 0 | -4 | .
Cc1cc(Br)ccc1NC(=O)CNC(=O)c1cnn(C)c1 | . | -4 | -2 | . | 2 | 0 | 0 | .
O=C(C/C=N\OCc1ccc([N+](=O)[O-])cc1)Nc1ccc(Cl)cc1 | i | -4 | . | 30 | 23 | -1 | -2 | 0
Cc1nc(-c2ccc(-c3ccon3)s2)no1 | . | -3 | . | 0 | -2 | -2 | -4 | -6
CC1=C(C(N)=O)C(c2cccs2)NC(=O)N1 (centres undefined) | i | -11 | 6 | 11 | -5 | 3 | 3 | 5
COCCNc1nc2ccccc2n2cnnc12 | i | -6 | -18 | 0 | -10 | 6 | 5 | -2
O=[N+]([O-])c1cccc(-c2ccc(SCc3cccnc3)nn2)c1 | i | 0 | . | -11 | -14 | 2 | -3 | -6
COc1ccc(/C(N)=N/OC(=O)c2ccc(C)c([N+](=O)[O-])c2)cc1OC | i | -8 | -16 | 4 | . | 3 | 1 | -5

The list continues:
SMILES | Rce1 inh | CSC inhib | Yeast UUG start | eIF4H FP inh | Env fusion inh | MT1-MMP act inh | MT1-MMP act inh RFP | PABP FP inh | others
Cc1onc(-c2ccccc2Cl)c1C(=O)N1CCN(c2ncccn2)CC1 | i | 64 | . | 2 | -11 | -3 | -1 | -7
O=C(Oc1cccc(NC(=O)c2ccco2)c1)c1ccc(Br)c(S(=O)(=O)N2CCCCC2)c1 | . | -1 | -3 | 2 | -46 | 0 | 2 | 1
Cc1ccc(-c2csc(C3C(N)=NC(S)=C(C#N)C34CCCCC4)n2)cc1 (centres undefined) | i | -11 | -11 | -2 | -6 | 4 | -1 | 0
CCSc1nc(C)c(C(C)=O)cc1C#N | i | . | -15 | 1 | . | 2 | -4 | -9
C=CCOC(=O)C1=C(C)NC(SCC(N)=O)=C(C#N)C1c1ccc(C)cc1 (centres undefined) | i | 3 | 0 | -11 | -15 | -1 | -6 | 2
CC(=O)N1CCN(C(=O)c2cc(S(=O)(=O)Nc3ccc(S(C)(=O)=O)cc3)ccc2Cl)CC1 | i | . | . | 0 | -1 | 4 | 7 | 7
C[C@@H]1CN([C@H](C)CO)C(=O)c2cc(NC(=O)Nc3ccc(C(F)(F)F)cc3)ccc2O[C@H]1CN(C)Cc1ccc(Cl)c(Cl)c1 | . | . | -12&-19 | . | -5 | 0 | -7 | .
Cc1cccc(C(=O)Nc2ccc(C(=O)/C=C/c3cccs3)cc2)c1 | i | 17 | -13 | -1 | -20 | 2 | 1 | 6
CCN(CC)C(=O)C1=C(C)N(Cc2ccccc2)C(=O)C(CC(=O)NC2CCCC2)C1 (centres undefined) | . | . | -6 | . | -15 | 0 | 8 | .
Fc1ccccc1-c1nc(-c2ccncc2)no1 | . | 8 | -37 | -6 | -36 | -1 | -1 | 11
Clc1ccc(OCCCn2cncn2)cc1Cl | i | 4 | -9 | 0 | -99 | -12 | -3 | 8
CN(c1ccccc1C(=O)Nc1ccc(CC#N)cc1)S(=O)(=O)c1ccccc1 | i | -14 | 7 | 2 | -62 | -6 | 3 | 1
CC1CCN(S(=O)(=O)c2ccc(C(=O)NCc3ccc4c(c3)OCO4)cc2)CC1 | i | -3 | -10 | 4 | . | 3 | -6 | -2
Cn1cccc1/C=C1\SC(=S)N(NC(=O)c2ccccc2Cl)C1=O | . | 8 | . | ? | . | 5 | 4 | -5

The list is partial; the hit share may differ from the screen's.
